Screens: PubChem BioAssay, Broad Institute
Ecoli rRNA inh: reduced GFP signal of wild-type E. coli, primary screen, bacterial rRNA inhibitor project, GFP/RFP fluorescence, OD600, single point. 1.6% of 350,000 active. E. coli WT GFP vs humanized-ribosome RFP mutants, 24 h; hits give low values; DMSO median 0, no signal -100. GFP signal change (wild-type ribosome), % (no concentration beside the values);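 active = significant combined selectivity score with lowered wild-type GFP, culture density cut under 30%, mutant RFP and density less affected; inactive = any of these conditions unmet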; note: one replicate is shown; some compounds called inactive have numbers as strong as hits
FGF22 binding: binders of human FGF22 protein, primary screen, FGF22 synaptogenesis inhibitor project, biophysical, thermal shift, single point; 1.5% of 340,000 active; recombinant FGF22 thermal shift, SYPRO orange fluorescence; percent of sucrose octasulfate shift, DMSO zero; Fibroblast growth factor 22 (Homo sapiens), Q9HCT0; calls only at 9.99 µM; AID 651658, 2012;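 active = melting point raised past a set limit in the mean and every replicate; three in four hits are not shown here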
Target sequence (Q9HCT0 whole entry, looked up): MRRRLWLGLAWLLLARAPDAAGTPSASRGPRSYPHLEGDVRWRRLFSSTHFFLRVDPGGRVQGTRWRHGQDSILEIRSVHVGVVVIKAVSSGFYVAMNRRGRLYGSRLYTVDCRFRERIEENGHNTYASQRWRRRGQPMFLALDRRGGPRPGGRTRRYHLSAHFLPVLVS
MLL AF4-AF9 inh: inhibitors of AF4 peptide binding to AF9, primary screen, biochemical, AlphaScreen, biotin-AF4 peptide, FLAG-AF9, single point; AID 651704, 2012; inhibition, % at 10 µM; 0.47% of 350,000 active;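 active = every replicate reaching a set inhibition limit, whatever the replicate mean, cut at about 25% in these data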;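 note: 0% = plate neutral control median and 100% = total signal loss; the record names both 10 and 1 µM as test concentration; the first replicate is given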
Target sequence (P42568 whole entry, looked up): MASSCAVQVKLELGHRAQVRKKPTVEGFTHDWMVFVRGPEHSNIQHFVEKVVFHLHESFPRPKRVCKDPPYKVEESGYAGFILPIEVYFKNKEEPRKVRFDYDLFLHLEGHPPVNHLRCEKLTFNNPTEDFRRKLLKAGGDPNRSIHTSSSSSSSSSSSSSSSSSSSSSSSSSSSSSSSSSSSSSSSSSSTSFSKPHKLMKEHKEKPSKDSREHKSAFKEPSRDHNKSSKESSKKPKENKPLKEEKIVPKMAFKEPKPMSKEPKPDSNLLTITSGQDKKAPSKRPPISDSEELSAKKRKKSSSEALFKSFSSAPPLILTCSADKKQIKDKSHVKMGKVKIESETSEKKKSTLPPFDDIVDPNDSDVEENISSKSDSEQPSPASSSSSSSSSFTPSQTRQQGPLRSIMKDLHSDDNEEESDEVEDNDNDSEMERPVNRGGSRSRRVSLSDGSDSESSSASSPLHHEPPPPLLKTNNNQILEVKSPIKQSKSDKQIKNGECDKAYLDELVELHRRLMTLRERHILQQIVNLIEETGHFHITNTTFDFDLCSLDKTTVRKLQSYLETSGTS
Ecoli rRNA inh OD600: second read-out of Ecoli rRNA inh, no call of its own (marks repeat the call); OD600 change, %; measured here: OD600 growth;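 optical density of the mix in the first replicate; 0 = DMSO median and -100 = no signal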
Ecoli rRNA inh RFP: further read-out of Ecoli rRNA inh, marked with its call; RFP signal change, %; measured here: RFP humanized mutant strains;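 first replicate; 0 = DMSO median and -100 = no signal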
* marks the source's active call; other numbers are inactive results; i = inactive; + = active, no number; & = joins results of further samples. An excerpt; count on the stated rates, not on these rows.

canonical_smiles	Ecoli rRNA inh	Ecoli rRNA inh OD600	Ecoli rRNA inh RFP	FGF22 binding	MLL AF4-AF9 inh
C[C@@H]1CCCCO[C@H](CN(C)CC2CCCCC2)[C@H](C)CN([C@H](C)CO)C(=O)c2cc(NC(=O)Nc3cccc4ccccc34)ccc2O1	-3	-5	-3.4	+	14
CCC(=O)N(C)C[C@@H]1Oc2ncc(-c3ccc(C)cc3)cc2C(=O)N([C@H](C)CO)C[C@@H]1C	1	0	-2.0	i	-11
CCCC(=O)Nc1ccc2c(c1)OC[C@@H](C)N(Cc1nccs1)C[C@H](C)[C@@H](OC)CN(C)C2=O	-3	-1	-4.4	i	-2.2
CCCNC(=O)N1CC2(C1)CN(Cc1ccccc1)[C@@H](CO)c1[nH]c3cc(OC)ccc3c12	1	3	2.4	i	1.0
CCCNC(=O)N(C)C[C@@H]1Oc2ncc(C#Cc3ccccc3F)cc2C(=O)N([C@@H](C)CO)C[C@@H]1C	1	4	-0.6	i	1.4
O=C(C[C@H]1CC[C@H]2[C@@H](COC[C@H](O)CN2S(=O)(=O)c2ccc(F)cc2)O1)NCC1CCCCC1	-3	6	4.9	i	28*
CC(=O)Nc1cccc(-c2ccnc3c2CC(C)(C(=O)Nc2cccc(C(C)=O)c2)O3)c1 (centres undefined)	-14	-7	8.1	i	0.5
CCS(=O)(=O)N1CC2(C1)[C@H](c1ccccc1)[C@@H](CO)N2C(=O)C1CC1	2	2	-2.5	i	-1.3
Cc1cc(Cl)ccc1-c1nc(NC(C)C)nc2ccsc12	0	-22	6.0	i	-12
COc1ccc(-c2cnc(C(N)=O)c(=O)[nH]2)cc1	8	7	-2.3	i	1.0

Overlap with the part before: 6 compounds, followed by the next part.
canonical_smiles	Ecoli rRNA inh	Ecoli rRNA inh OD600	Ecoli rRNA inh RFP	FGF22 binding	MLL AF4-AF9 inh
CCCNC(=O)N(C)C[C@@H]1Oc2ncc(C#Cc3ccccc3F)cc2C(=O)N([C@@H](C)CO)C[C@@H]1C	1	4	-0.6	i	1.4
O=C(C[C@H]1CC[C@H]2[C@@H](COC[C@H](O)CN2S(=O)(=O)c2ccc(F)cc2)O1)NCC1CCCCC1	-3	6	4.9	i	28*
CC(=O)Nc1cccc(-c2ccnc3c2CC(C)(C(=O)Nc2cccc(C(C)=O)c2)O3)c1 (centres undefined)	-14	-7	8.1	i	0.5
CCS(=O)(=O)N1CC2(C1)[C@H](c1ccccc1)[C@@H](CO)N2C(=O)C1CC1	2	2	-2.5	i	-1.3
Cc1cc(Cl)ccc1-c1nc(NC(C)C)nc2ccsc12	0	-22	6.0	i	-12
COc1ccc(-c2cnc(C(N)=O)c(=O)[nH]2)cc1	8	7	-2.3	i	1.0
CCCNC(=O)C[C@@H]1CC[C@H]2[C@H](COc3ccc(NC(=O)Nc4c(C)noc4C)cc3C(=O)N2C)O1	1	-6	0.8	i	-0.9
C[C@@H]1CCCCO[C@@H](CN(C)Cc2ccc3c(c2)OCO3)[C@H](C)CN([C@H](C)CO)C(=O)c2cc(NC(=O)Nc3ccccc3)ccc2O1	6	-39	26	i	15
COc1ccc(NC(=O)N2CC3(C2)CN(C(=O)c2cccnc2)[C@@H](CO)c2[nH]c4cc(OC)ccc4c23)cc1	-1	6	-0.9	i	-2.6
Cc1cc(=O)oc2cc(O)cc(OCc3ccccc3)c12	-43	-72	-15	i	-4.8
CCC(=O)N1CC2(C1)CN(Cc1cccc(OC)c1)[C@@H](CO)c1[nH]c3cc(OC)ccc3c12	-1	4	2.8	i	-0.6
COc1ccc(NC(=O)Nc2ccc3c(c2)C(=O)N([C@@H](C)CO)C[C@H](C)[C@@H](CN(C)Cc2ccc(C(F)(F)F)cc2)OCCCC[C@@H](C)O3)cc1	-3	4	7.3	i	-1.0
COC(=O)c1cc2c(c3c4cc(C#N)ccc4n(S(=O)(=O)c4ccc(C)cc4)c13)C(=O)N(C)C2	-3	-3	5.7	i	2.1
CC1(C(=O)NCc2ccc3c(c2)OCO3)CCN1Cc1csc2ccccc12 (centres undefined)	-63	-73	-17	i	-1.7
CC(C)CC#Cc1ccc2c(c1)O[C@H](CN(C)CC1CCOCC1)[C@@H](C)CN([C@H](C)CO)S2(=O)=O	-6	-23	7.5	i	4.2
C[C@H]1CN([C@@H](C)CO)C(=O)c2cc(C#CC3(O)CCCC3)cnc2O[C@@H]1CN(C)Cc1cccnc1	3	4	-1.7	i	0.0
C[C@H](CO)N1C[C@H](C)[C@H](CN(C)CC2CCCCC2)OCCCC[C@H](C)Oc2ccc(NC(=O)C3CCCCC3)cc2C1=O	-1	-6	3.1	i	5.2
C[C@@H]1CN([C@H](C)CO)C(=O)c2cccc(NC(=O)c3ccc(-c4nccs4)cc3)c2O[C@@H]1CN(C)Cc1ccc2c(c1)OCO2	-5	-17	3.3	i	-16
C[C@@H]1CN([C@H](C)CO)C(=O)c2cccc(NC(=O)c3nc4ccccc4s3)c2O[C@H]1CN(C)Cc1ccc(C(F)(F)F)cc1	0	-1	0.1	i	-1.0
Cc1ccc(-c2cnc3c(c2)C(=O)N([C@H](C)CO)C[C@H](C)[C@@H](CN(C)C(=O)c2ccc(F)cc2)O3)cc1	-4	-18	0.3	i	-4.4
COc1ccc(S(=O)(=O)Nc2cccc3c2O[C@H](CN(C)Cc2ccc(C(F)(F)F)cc2)[C@H](C)CN([C@H](C)CO)C3=O)cc1	-8	-12	-1.3	i	6.4
COc1ccc(S(=O)(=O)Nc2ccc3c(c2)C(=O)N([C@@H](C)CO)C[C@@H](C)[C@H](CN(C)C(=O)C2CCCCC2)OCCCC[C@H](C)O3)cc1	-4	0	1.6	i	0.6
CN(C)CC(=O)N[C@@H]1CC[C@@H](CCn2cc(C3CCCCC3)nn2)O[C@H]1CO	-2	0	1.9	i	-2.3
COCC#Cc1cnc2c(c1)C(=O)N([C@@H](C)CO)C[C@H](C)[C@H](CN(C)C(=O)CN1CCOCC1)O2	3	16	-2.0	i	-3.2
C[C@@H]1CCCCO[C@H](CN(C)C(=O)Nc2ccc(F)cc2)[C@@H](C)CN([C@H](C)CO)C(=O)c2cc(NC(=O)Nc3ccc4c(c3)OCO4)ccc2O1	1	6	-4.1	i	1.0
Cc1ccc(S(=O)(=O)N2CCCCC2)cc1NC(=O)c1ccc(=O)[nH]c1	6	11	-0.8	i	-2.7
COc1ccccc1-c1cn(CC[C@@H]2CC[C@H](NC(=O)NC(C)C)[C@H](CO)O2)nn1	-2	-1	-0.2	i	-1.6
C[C@H](CO)N1C[C@H](C)[C@@H](CN(C)S(C)(=O)=O)Oc2ccc(NC(=O)NC3CCCCC3)cc2CC1=O	-1	-4	-1.5	i	2.8
CO[C@@H]1CN(C)C(=O)c2ccc(NS(C)(=O)=O)cc2OC[C@H](C)N(C(=O)CN(C)C)C[C@H]1C	0	6	0.2	i	3.8
C[C@H](CO)N1C[C@H](C)[C@@H](CN(C)CC2CCCCC2)Oc2ccc(NC(=O)Nc3ccc4c(c3)OCO4)cc2CC1=O	1	12	-2.2	i	26*
C[C@@H]1CN([C@H](C)CO)C(=O)c2cc(NC(=O)Nc3ccc4c(c3)OCO4)ccc2O[C@@H](C)CCCCO[C@H]1CN(C)C(=O)C1CCCCC1	-1	7	2.4	i	8.6
C[C@H]1CN([C@@H](C)CO)C(=O)c2cc(Br)cnc2O[C@@H]1CN(C)Cc1ccncc1	4	2	-0.9	i	-5.5
CC(C)NC(=O)Nc1ccc2c(c1)C(=O)N([C@H](C)CO)C[C@@H](C)[C@@H](CN(C)Cc1ccc(C(F)(F)F)cc1)OCCCC[C@@H](C)O2	-1	6	-6.5	i	1.2
O=C(C[C@H]1C=C[C@@H](NC(=O)Nc2ccc(C(F)(F)F)cc2)[C@H](CO)O1)NCCN1CCCC1	0	5	0.2	i	5.9
COc1ccc(OCCNC(=O)C2(C)CCN2Cc2ccc3ccccc3c2)cc1 (centres undefined)	-17	-28	6.4	i	-1.0
C[C@@H]1CN([C@@H](C)CO)C(=O)c2cccc(NC(=O)C3CCCCC3)c2O[C@H]1CN(C)C(=O)NC1CCCCC1	2	10	-0.2	i	-3.6
Cc1ccc([C@H]2C[C@H](O)[C@@H](n3cc(COC(=O)c4ccccc4)nn3)CN2C(=O)C2CCCCC2)cc1	13	7	0.9	i	-2.2
Cc1noc(C)c1S(=O)(=O)Nc1ccc2c(c1)C(=O)N([C@@H](C)CO)C[C@H](C)[C@@H](CN(C)C(=O)Nc1ccccc1)OCCCC[C@H](C)O2	-4	-5	-0.2	i	4.1
C[C@@H]1CCCCO[C@@H](CN(C)C(=O)Nc2ccc(F)cc2)[C@H](C)CN([C@H](C)CO)C(=O)c2cc(NC(=O)Nc3ccccc3)ccc2O1	1	3	-0.4	i	-2.2
C/C=C/c1ccc([C@@H]2[C@H](C#N)N(C(=O)NC3CCCC3)[C@H]2CO)cc1	1	1	-0.9	i	-1.7
CO[C@@H]1CN(C)C(=O)c2ccc(NC(=O)c3ccccc3F)cc2OC[C@@H](C)N(C)C[C@H]1C	1	1	-3.5	i	-4.1
CCCC(=O)Nc1ccc2c(c1)C(=O)N(C)C[C@H](OC)[C@H](C)CN(CCc1ccccc1)[C@@H](C)CO2	1	0	-2.9	i	1.1
COc1ccccc1S(=O)(=O)N[C@@H]1C=C[C@@H](CC(=O)N2CCOCC2)O[C@@H]1CO	2	3	-0.9	i	-2.0
O=Cc1cscc1[B-](F)(F)F	-9	-10	0.0	i	-0.2
COCC(=O)Nc1ccc2c(c1)[C@H]1C[C@H](CC(=O)NCc3ccc(-c4ccccc4)cc3)O[C@H](CO)[C@H]1O2	-10	-13	6.9	i	0.9
C[C@@H]1CN([C@@H](C)CO)C(=O)c2cccc(NC(=O)c3cnccn3)c2O[C@H]1CN(C)C(=O)Nc1cccc2ccccc12	1	0	5.1	i	-2.2
C[C@H](CO)N1C[C@H](C)[C@H](CN(C)C(=O)Cc2ccncc2)Oc2ncc(Br)cc2C1=O	4&9	5&23	-0.1&-0.6	i	-1.8&-18
C[C@@H]1CN([C@@H](C)CO)C(=O)CCCn2nncc2CO[C@H]1CN(C)Cc1ccccc1	8&3	15&14	2.2&-4.1	i	-0.4&1.8&-1.2
O=C(C1CCCC1)N1C[C@@H]2[C@H](c3ccccc31)[C@H](CO)N2C(=O)Cc1ccccn1	4	4	1.3	i	-1.4
CN1C(c2ccccc2)CC(C)(O)CC1c1ccccc1 (centres undefined)	12	6	-1.6	i	-0.2
CC1(C)OC(=O)C2=C(C[C@@H](CCc3ccccc3)O[C@H]2C2CCCC2)O1	2	-2	1.9	i	-2.2
COCCNC(=O)C1(C)CCCN(CCS(=O)(=O)c2ccc(C)cc2)C1 (centres undefined)	6	9	1.1	i	1.2
O=C(N[C@@H]1C=C[C@@H](CC(=O)N2CCCCC2)O[C@H]1CO)c1ccc2c(c1)OCO2	-1	-5	-0.7	i	-5.6
CN(C(=O)C1Cc2c(-c3ccccc3Oc3ccccc3)ccnc2O1)c1ccccc1 (centres undefined)	4	3	-1.5	i	0.3
CC(=O)c1cccc(NC(=O)CSc2ccc(-c3cccnc3)nn2)c1	9	0	5.5	i	-0.8
C[C@@H]1CN([C@H](C)CO)C(=O)Cc2cc(NS(=O)(=O)c3cccs3)ccc2O[C@H]1CN(C)Cc1ccccc1	-2	0	2.9	i	-4.4

Printed as active in MLL AF4-AF9 inh, among the entries above:
molecule | Ecoli rRNA inh | Ecoli rRNA inh OD600 | Ecoli rRNA inh RFP | MLL AF4-AF9 inh
O=C(C[C@H]1CC[C@H]2[C@@H](COC[C@H](O)CN2S(=O)(=O)c2ccc(F)cc2)O1)NCC1CCCCC1 | -3 | 6 | 4.9 | 28*
C[C@H](CO)N1C[C@H](C)[C@@H](CN(C)CC2CCCCC2)Oc2ccc(NC(=O)Nc3ccc4c(c3)OCO4)cc2CC1=O | 1 | 12 | -2.2 | 26*

The list continues.
canonical_smiles	Ecoli rRNA inh	Ecoli rRNA inh OD600	Ecoli rRNA inh RFP	FGF22 binding	MLL AF4-AF9 inh
CCC(=O)N1CCC2(CC1)CN(Cc1cccc(F)c1)[C@H](CO)c1c2c2ccc(OC)cc2n1C	5	-17	-3.5	i	-1.5
COc1ccc(S(=O)(=O)N2C[C@H](O)COC[C@H]3O[C@H](CC(=O)NCCCN4CCOCC4)CC[C@@H]32)cc1	-1	12	-1.1	i	-2.7
C[C@@H]1CN([C@@H](C)CO)C(=O)c2cccc(NS(=O)(=O)c3ccc(F)cc3)c2O[C@@H]1CN(C)Cc1ccncc1	4	-4	-1.2	i	-1.4
CC(C)NC(=O)Nc1cccc2c1O[C@H](CN(C)Cc1ccc(Oc3ccccc3)cc1)[C@H](C)CN([C@@H](C)CO)C2=O	1	-2	-1.2	i	3.1
